# High-throughput results: PubChem BioAssay, SRMLSC
# H5N1 CPE – MDCK cell protection from H5N1 avian flu; cytopathic effect, luminescence, 72 h; active compounds read high; no value below 0 was filed and about half of the inactive calls have no number; reference of the scale not given here; AID 740, 2007; inhibition, % at 50 µM; hit rate 0.07% among 96,000; in the data active = inhibition above about 25%
# * = called active by the depositor; i = inactive. These rows are one share of the data; count on the stated rates, not on these rows.
No.	SMILES	H5N1 CPE
1	O=C(CSCC(=O)c1ccccc1)Nc1ccccc1Cl	0.1
2	COc1ccccc1-n1cnc2cc(NCc3cccs3)ccc21	2.2
3	N#CC1=C(N)Oc2cc(O)ccc2C1c1ccccc1 (stereo unspecified)	i
4	O=C(NC1CCCCC1)C(c1ccccc1)N1CCCC1 (stereo unspecified)	2.6
5	COc1ccc(N2CCN(S(=O)(=O)c3ccc4c(c3)CCCC4)CC2)c([N+](=O)[O-])c1	i
6	CCOC(=O)c1c[nH]c2c(Cl)c(Cl)ccc2c1=O	i
7	COc1ccc(N2CCN(C(=O)COc3ccccc3)CC2)cc1	0.2
8	N#Cc1nc(COc2ccc(-c3ccccc3)cc2)oc1NCc1cccnc1	i
9	CCN1CCN(CC(=O)n2c3c(c4ccccc42)CC(C)CC3)CC1 (stereo unspecified)	i
10	Cc1ccc(/C=N/c2sc3c(c2C#N)CCC3)o1	2.0
11	COC(=O)C(NC(C)=O)(Nc1nc2ccc(S(C)(=O)=O)cc2s1)C(F)(F)F (stereo unspecified)	i
12	COc1cc(CC(=O)Nc2nccs2)cc(OC)c1OC	i

# Pulled by structure from above (five):
No.	SMILES	H5N1 CPE
7	COc1ccc(N2CCN(C(=O)COc3ccccc3)CC2)cc1	0.2
9	CCN1CCN(CC(=O)n2c3c(c4ccccc42)CC(C)CC3)CC1 (stereo unspecified)	i
10	Cc1ccc(/C=N/c2sc3c(c2C#N)CCC3)o1	2.0
8	N#Cc1nc(COc2ccc(-c3ccccc3)cc2)oc1NCc1cccnc1	i
2	COc1ccccc1-n1cnc2cc(NCc3cccs3)ccc21	2.2

# Following part
No.	SMILES	H5N1 CPE
13	Cc1cc(C)c(NC(=O)CC(C)(C)C)c(Cl)c1	i
14	CC(C)OCP(=O)(c1ccccc1)c1ccccc1	0.2
15	COC(=O)Nc1ccccc1C(=O)N1CCCCC1	i
16	CCOC(=O)N1CCN(C(=O)c2cnn(-c3ccccc3)c2NC(=O)c2ccccc2F)CC1	1.5
17	CN1CCN(c2nc3ccccc3c(=O)n2-c2ccccc2)CC1	2.1
18	CCCOc1ccc(C(=O)NCCO)cc1	i
19	COc1ccc(/C=N/NC(=O)Cc2csc(Nc3cccc(C(F)(F)F)c3)n2)c(OC)c1	1.4
20	COc1ccc(OCCCC(=O)Nc2ccc3c(c2)OCCO3)cc1	0.1
21	Cc1nc(N)nc(-c2ccccc2O)n1	1.1
22	COP(=O)(OC)C1(Nc2ccc(C)cc2)CCCCC1	i
23	COc1ccc(Nc2ncnc3c2cnn3-c2ccccc2)cc1OC	0.5
24	CCN1CCN(Cc2c(O)c(Cl)cc3c(C)cc(=O)oc23)CC1	0.1
25	Cc1cc2ncn(C3CC(=O)N(Cc4ccccc4)C3=O)c2cc1C (stereo unspecified)	0.1
26	O=C(Nc1ccc(N2CCOCC2)c(Cl)c1)c1cccc(F)c1	0.2
27	CC(C)OC(=O)c1ccc(N2C(=O)C3CC=CCC3C2=O)cc1 (stereo unspecified)	0.8
28	CCc1cccc(NC(=O)CN(c2ccc(OC)cc2)S(=O)(=O)c2c(C)n[nH]c2C)c1	i
29	Clc1ccc(CCNc2ncnc3nc[nH]c23)cc1	i
30	CC1=CC(C)(C)N2C(=O)C3(C(C#N)=C(N)OC4=C3C(=O)CC(C)(C)C4)c3c(C)c(C)cc1c32 (stereo unspecified)	i
31	Cc1c(NC(=O)CSc2nc3ccccc3n2C)c(=O)n(-c2ccccc2)n1C	i
32	Cc1nn(-c2ccccc2)c2c1CC1(C(=O)N(C)C(=O)N(C)C1=O)C1CCCCN21 (stereo unspecified)	i
33	CCCSc1nc2c(cnn2-c2ccc(C)cc2)c(=O)[nH]1	2.9
34	CCOC(=O)c1[nH]c2cc3c(cc2c1CCCN1C(=O)c2ccccc2C1=O)OCCO3	1.8
35	O=C(CC1SC2=NCCN2C1=O)Nc1ccc(Cl)cc1 (stereo unspecified)	i
36	CCN1CCN(CCn2c(=S)[nH]c3ccccc3c2=O)CC1	0.8

# Some of the entries so far, field by field:
34	CCOC(=O)c1[nH]c2cc3c(cc2c1CCCN1C(=O)c2ccccc2C1=O)OCCO3
  H5N1 CPE: 1.8
35	O=C(CC1SC2=NCCN2C1=O)Nc1ccc(Cl)cc1 (stereo unspecified)
  H5N1 CPE: i
36	CCN1CCN(CCn2c(=S)[nH]c3ccccc3c2=O)CC1
  H5N1 CPE: 0.8

# The listing continues.
No.	SMILES	H5N1 CPE
37	Cc1ccc(-c2noc(-c3cccs3)n2)cc1	i
38	COC(=O)C1CCN(Cc2cc(=O)oc3cc(OC)ccc23)CC1	1.0
39	COc1cc(C(=O)OCC(=O)NC2CCCC2)cc(NC(=O)c2ccco2)c1OC	0.7
40	CCOC(=O)C1(C(F)(F)F)N=C(N(C)C)OC(N(C)C)=N1	i
41	Cc1cnc(NC(=O)CSc2nnc(Cc3ccccc3)n2C)s1	0.3
42	Cc1cc(CC(=O)O)c(C)cc1CC(=O)O	0.3
43	COc1ccc(C(=O)CC(c2ccccc2)C2CCCCC2=O)cc1 (stereo unspecified)	i
44	Cc1ccc(-c2nnc(CSc3nnc(C)s3)o2)cc1	i
45	COc1ccccc1NC(=O)c1ccccc1SC	i
46	N#Cc1nc(-c2ccc(OCc3ccccc3Cl)cc2)oc1NCCCn1ccnc1	i
47	C=CCn1c(C)cc(C(=O)COC(=O)COc2ccccc2C#N)c1C	0.5
48	CC1=CC(C)C(COC(N)=O)(COC(N)=O)C(C)C1 (stereo unspecified)	0.3
49	CCN(CC)c1ccc(/C=N/NC(=O)OC)c(O)c1	0.3
50	COc1ccc(NC(=O)Nc2ccc3c(c2)N(C)C(=O)CS3)cc1Cl	0.8
51	Cc1ccnc(NC2c3ccccc3C(=O)N2Cc2ccccc2Cl)c1 (stereo unspecified)	i
52	CCC(C)NCCCOc1cc(Cl)ccc1Cl (stereo unspecified)	i
53	CCN1C(=O)c2ccccc2S(=O)(=O)c2ccc(C(=O)NCc3cccnc3)cc21	0.7
54	CCOC(=O)C1CCN(C(=O)c2ccc(OCC)c(OCC)c2)CC1	0.9
55	O=C(c1ccco1)N1CCN(C(=O)c2snc3ccc(Cl)cc23)CC1	1.1
56	COc1ccc(CCNC(=O)CSc2nnc(CNC(=O)c3cccs3)o2)cc1OC	2.2
57	COc1ccc(CNC(=O)C2CCCN(S(=O)(=O)c3cc(C)ccc3OC)C2)cc1 (stereo unspecified)	i
58	CN(C(=O)COc1nnc(-c2cccs2)c(-c2cccs2)n1)c1ccccc1	i
59	CCC(=O)Nc1cc(NC(=O)CSc2ncc(-c3ccc(F)cc3)n2Cc2ccco2)ccc1C	i
60	CCOC(=O)c1ccc2[nH]c(C)cc(=O)c2c1	0.1
61	OCCNC(=S)NC1CCCCC1	i
62	Cc1nnc(SCC(=O)N2CCN(S(=O)(=O)c3ccccc3)CC2)n1Cc1ccccc1	0.7
63	O=C(C(c1ccccc1)c1ccccc1)N1CCN(Cc2ccncc2)CC1	i
64	CCCCOC(=O)CSC1=C(C#N)C(c2ccccc2OC)C(C#N)C(=O)N1 (stereo unspecified)	0.8
65	O=C(Nc1cnn(C23CC4CC(CC(C4)C2)C3)c1)c1cnn2c(C(F)(F)F)cc(-c3ccco3)nc12	3.6
66	COc1ccc(NC(=O)C23CCC(C)(C(=O)O2)C3(C)C)cc1 (stereo unspecified)	0.6
67	O=C(Cn1cc2c(n1)CCCCC2)NCCCN1CCOCC1	0.9
68	CCN(CC)CCSc1nc(O)c(C(C)C)c(=O)[nH]1	0.6
69	COc1cc2c3c(c1OC)-c1cc(O)ccc1CC3NCC2 (stereo unspecified)	0.4
70	Cc1oc2cc(OCC(=O)O)ccc2c(=O)c1Oc1ccccc1	0.9
71	Cc1cc2c(=O)n(NC(N)=O)c(C)nc2s1	i
72	CCCS(=O)(=O)NCCc1cc2ccc(OC)cc2[nH]c1=O	1.9

# Of the compounds above, these have a COOH group.
No.	SMILES	H5N1 CPE
42	Cc1cc(CC(=O)O)c(C)cc1CC(=O)O	0.3
70	Cc1oc2cc(OCC(=O)O)ccc2c(=O)c1Oc1ccccc1	0.9

# The results go on.
No.	SMILES	H5N1 CPE
73	CS(=O)(=O)N(CC(=O)N1CCN(c2ccc(F)cc2)CC1)c1ccc(F)c(Cl)c1	i
74	Cn1c(SCC(=O)N2CCN(c3ccccc3)CC2)nnc1-c1ccccc1	0.1
75	CCCC12CN3CC(CCC)(CN(C1)C3c1ccccn1)C2=O (stereo unspecified)	0.9
76	Cc1[nH]nc2c1C1(CCN(C(=O)c3ccccc3)CC1)C(C#N)=C(N)O2	i
77	CCOC(=O)/C(C(N)=NCCCO)=C(/O)c1ccccc1	0.2
78	CCOc1ccc(Cc2nc(C)c(CC(=O)N3CCCCC3)c(=O)[nH]2)cc1	0.1
79	CN1C(=O)C(O)(C2COC(C)(C)CC2=O)c2ccccc21 (stereo unspecified)	i
80	CCCCn1c(SCC(=O)Nc2ccc3c(c2)OCO3)nc2c1c(=O)n(C)c(=O)n2C	1.1
81	Cc1ccc2nc(SCC(=O)c3cc(C)n(C)c3C)[nH]c2c1	i
82	CCCCn1cc(SCC(=O)O)c2ccccc21	1.7
83	CSc1cccc(NC(=O)/C=C/c2ccc(Cl)cc2)c1	i
84	CCOC(=O)C1=C(C)Nc2nc(=S)[nH]n2C1c1ccc(Cl)cc1 (stereo unspecified)	i
85	Cn1c(NCc2ccco2)nc2c1c(=O)n(Cc1ccc(Br)cc1)c(=O)n2C	i
86	CCCCc1nc2ccccc2c(=O)n1NC(=O)c1c(O)c2c(n(CC(C)C)c1=O)CCCC2	0.7
87	CCOC(=O)c1cc(C)sc1NC(=O)c1ccc(Cl)s1	i
88	COCCNC(=O)CSc1nc(-c2ccccc2)cs1	i
89	Cc1cc(C)n(-c2nnc3n2N=C(c2c[nH]c4ccccc24)CS3)n1	1.1
90	COc1cc(NC(=O)C2CCCC2)c(OC)cc1Cl	0.2
91	CCn1nc(NC(=O)c2ccncc2)c2cc3ccc(C)cc3nc21	0.9
92	COc1ccc(C=C2C(=O)N(C)C(=O)N(C)C2=O)cc1CSc1ccccn1	0.2
93	Cc1cc(NC(=O)CSc2nc3ccccc3c(=O)n2CCCC(=O)NCc2ccco2)n[nH]1	2.3
94	COc1ccc(C(=O)Nc2ccc(N3CCN(c4ccc(OC)cc4)CC3)c(C#N)c2)cc1	i
95	O=C(NCc1ccccn1)c1cccs1	2.4
96	COc1ccccc1Nc1nc(=O)[nH]nc1C	i
97	COc1ccc(CCNS(=O)(=O)c2cccc(C(=O)O)c2)cc1OC	i
98	Clc1nc(-c2n[nH]nc2Cl)n[nH]1	i
99	Cc1ccc2nsnc2c1NC(=O)c1ccc(-c2cc(Cl)ccc2Cl)o1	i
100	COc1ccc(CN2CC(C(=O)NCc3cccc(OC)c3)CC2=O)cc1 (stereo unspecified)	0.8
101	Cn1c(SCC(=O)O)nc2ccccc2c1=O	0.7
102	C=CCNc1nnc(C)c2ccccc12	i
103	CCOc1ccccc1OCC(=O)NCc1ccco1	5.2
104	CCCCC1(C)NC(=O)c2c(C)sc(C(=O)OCC)c2N1 (stereo unspecified)	i
105	CCC(=O)Nc1cc2nn(-c3ccc(OC)cc3)nc2cc1C	0.2
106	COc1ccccc1CNC(=O)c1ccc(SC)cc1OC	0.4
107	CCCn1nnc(NC(=O)c2cc(Br)cc(Br)c2OC)n1	i
108	CC(C)(O)C(=O)NN(C(=O)c1ccccc1)c1cccc(Br)c1	0.6
109	CC(=O)Oc1cc2c(C(C)=O)coc2c2ccccc12	0.9
110	CCN(CC)CCN1C(=O)C(O)=C(C(=O)c2sc(C)nc2C)C1c1cccnc1 (stereo unspecified)	0.5
111	CC(C)NC(=O)c1cccc(Cn2cc(Cl)cn2)c1	i
112	CC(C)(C)c1ccc(N2C(=O)Cc3c2nc(N)c(C#N)c3N)cc1	i
113	CC(CCc1ccccc1)NC(=O)CN1CCN(Cc2ccccc2)C1=O (stereo unspecified)	i
114	CCOC(=O)c1sc2nc(N3CCOCC3)c3c(c2c1N)CCN(Cc1ccccc1)C3	i
115	CCN(CC)S(=O)(=O)c1cccc(-c2nnc(SCc3nnc(-c4ccccc4)o3)n2C)c1	2.2
116	COCCCn1c(N)c(-c2nc3ccccc3n2C)c2nc3ccccc3nc21	i
117	CCCCn1c(N)c(Sc2ccccc2)c(=O)[nH]c1=O	i
118	CCOc1ccc(N/C=C/C(=O)c2ccc(C)cc2)c([N+](=O)[O-])c1	0.1
119	CC(C)CC(=O)Nc1cc(C(F)(F)F)ccc1N1CCOCC1	i
120	CN1CCCC1CCNC1C2CC3CC(C2)CC1C3 (stereo unspecified)	0.2
121	CCN1CNC(=S)N(c2cccc(C)c2C)C1	i
122	CC(C)CNC(=S)NNC(=O)c1csc2c1CCCC2	0.3
123	O=C(NCc1cccnc1)NC1(C(F)(F)F)Oc2ccc(Cl)cc2O1 (stereo unspecified)	0.4
124	CCCCCCc1c(O)c2ccccc2[nH]c1=O	0.7
125	Cc1oc2nc(SCC(=O)NCCCO)nc(N)c2c1C	0.4
126	COc1cccc(-n2ccnc2SCC(=O)NCc2ccccc2)c1	1.2
127	O=C(CCS(=O)(=O)Cc1ccccc1)NCC1CCCO1 (stereo unspecified)	0.7
128	CCOC(=O)c1nn(-c2ccc(Br)cc2)cc1C(=O)c1cccc2ccccc12	0.9
129	O=C1CC2CS(=O)(=O)CC2N1C1CCCCC1 (stereo unspecified)	i
130	CCOC(=O)N1CCC(NC(=O)c2sc3nc4n(c(=O)c3c2C)CCCC4)CC1	i
131	CCOc1ccc2nc(NC(=O)CN3CCN(c4ccccn4)CC3)sc2c1	0.5
132	CNC(=O)/C(C#N)=C/c1ccc(-c2ccc(OC)cc2[N+](=O)[O-])o1	0.4

# Next part.
No.	SMILES	H5N1 CPE
133	Nc1ccc2c(c1)C(=O)N(CC1CCCO1)C2=O (stereo unspecified)	i
134	CCCN=C(C)c1c(-c2ccccc2)[nH]n(-c2nc3ccccc3s2)c1=O	i
135	CN(C)S(=O)(=O)c1ccc(C(=O)Nc2ccccn2)cc1	3.2
136	O=C(O)C1CC(=O)N(c2ccc(F)c(F)c2)C1 (stereo unspecified)	i
137	Cc1noc(C)c1CSc1nc2sc(C)c(C)c2c(=O)n1C1CCCC1	25.2*
138	Cn1c(=O)oc2cc(S(=O)(=O)Nc3ccc4c(c3)OCO4)ccc21	1.9
139	COc1ccccc1OCc1nnc(SCC(=O)Nc2ccc(C)cc2)n1C	i
